TRPML1 agonist: activates the human TRPML1 channel | Q9GZU1 | TRPML1-expressing cells, Ca2+ dye fluorescence, FDSS; host cell line not named in the record; reference of the full effect not given here | activation, % (test concentration not listed) | 410,000 tested, 0.12% active | AID 624414; in the data active = activation above about 50%; inconclusive = about 30% to 50%; inactive = below about 30%; also: 0% is about no effect; the text of the record puts the active cut at 80%
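Cells: TRPML1-DL, 1X Tet inducer, ~16 h at 37 degrees C/5% CO2. Dye: ABD Ca8 no-wash + quencher, 45-90 min RT. Read: 10 s baseline, compound add, 110 s agonist phase; 54-4 EC80 (4uM final), 110 s antagonist phase.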
D2 potentiator: potentiates the human D2 dopamine receptor allosterically; potentiation, % (concentration not given with the values); P14416; DiscoveRx D2 beta-arrestin cells, luminescence, 90 min; 100% = 57 uM dopamine signal; 360,000 tested, 0.23% active; active = potentiation of 50% or more; inconclusive = 30% to 50%; inactive = 30% or less;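 also: compound concentration not given in the record; tested on top of an EC20 dose of dopamine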
Target sequence (P14416 whole entry, looked up): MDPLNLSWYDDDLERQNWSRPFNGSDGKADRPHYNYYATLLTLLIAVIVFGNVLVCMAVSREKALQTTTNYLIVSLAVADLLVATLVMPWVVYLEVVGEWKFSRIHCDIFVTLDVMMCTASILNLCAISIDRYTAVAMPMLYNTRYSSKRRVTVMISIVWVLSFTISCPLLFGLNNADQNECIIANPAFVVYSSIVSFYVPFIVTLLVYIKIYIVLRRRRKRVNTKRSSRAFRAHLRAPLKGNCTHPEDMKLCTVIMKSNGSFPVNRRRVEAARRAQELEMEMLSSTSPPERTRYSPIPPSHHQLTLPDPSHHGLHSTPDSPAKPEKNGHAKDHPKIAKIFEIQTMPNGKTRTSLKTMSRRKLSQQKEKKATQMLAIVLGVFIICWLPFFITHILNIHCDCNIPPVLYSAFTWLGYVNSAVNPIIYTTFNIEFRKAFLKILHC
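PathHunter beta-arrestin assay in DiscoveRx D2 cells. Compounds were added with an EC20 of dopamine (50 nM final) for 90 min at 37 deg C. Luminescence was read 1 h after detection reagent, with 57 uM dopamine as the EC100 control.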
Six1-Eya2 blk: inhibitors of human Six1/Eya2 interaction; activity change, % (test concentration not listed); AlphaScreen GST-Six1/His-Eya2 binding, biochemical; active compounds read low; control for the full effect not named in the record; 360,000 tested, 0.56% active; in the data active = activity change below about -65%; inconclusive = about -30% to -65%; inactive = above about -30%; also: % is scaled to controls: 0 for no effect and ±100 for the full control effect
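GST-Six1 + His-Eya2 (5X stock: 250/500 nM); Tris pH 8.0, 300 mM NaCl, 0.05% BSA, 0.02% Tween 20; GSH donor/Ni acceptor beads; 1 h 37 °C dark; AlphaScreen readout.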
PINK1 expr mod: modulators of PINK1 expression; PINK1 immunofluorescence, high-content cytometry, 24 h; Potency, µM (top dose mostly 76.6 µM), inactives show top-dose activation (PINK1 increase), usual class: activators; 410,000 tested, 0.2% active; AID 624263; active = well fitted activation curve with a large enough effect; inconclusive = small, poorly fitted or top-dose-only effect; inactive = flat fitted curve, though single readings scatter; cell line not stated here;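 also: potency is read from the fitted curve at half-maximal effect; % of control where 0% means no effect; nearly all actives have a fitted effect of over 65% in size; a mitochondrial uncoupler was the plate control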
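Fluorescence from anti-PINK1 antibody, together with nuclear and cell stains, was scanned on a laser-scanning cytometer. Before staining, stable-line cells were incubated 24 hours with compounds at 5 concentrations; primary antibody 12 h at 10 degrees C.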
TRPML1 inh: human mucolipin-1 channel inhibition. Q9GZU1. TRPML1-inducible cells, Ca2+ dye fluorescence, FDSS; active compounds read low; inhibition of EC80 agonist-evoked calcium signal. activity change, negative = inhibition, % (test concentration not listed). 390,000 tested, 0.02% active; in the data active means activity change below about -50%; inconclusive means about -30% to -50%; inactive means above about -30%;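 also: stimulus is agonist 54-4 at its EC80 concentration; % is scaled to controls: 0 for no effect and ±100 for the full control effect; compound concentration not given in the record; the text of the record puts the active cut at -80%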
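Calcium fluorescence in TRPML1-DL cells induced overnight with Tet: a 110 s read after compound pin addition, then a 110 s antagonist read after challenge with 54-4 at 4 uM final (EC80).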
D2 agonist: human D2 receptor agonism in beta-arrestin assay; DiscoveRx PathHunter D2 beta-arrestin, luminescence, 90 min; 100% = 57 uM dopamine signal; 360,000 tested, 0.084% active; AID 624465; P14416; activation, % (no concentration beside the values); in the data active = activation above about 40%; inconclusive = about 15% to 40%; inactive = below about 15%; also: compound concentration not given in the record; the text of the record calls up to 30% inactive
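Agonist mode: compounds alone added to overnight-plated D2 PathHunter cells for 90 min at 37 C, with 57 uM final dopamine (EC100) defining full response. Beta-arrestin recruitment detected by chemiluminescent reagent, read after 1 h at ambient temperature.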
Numbers without * were called inactive; ? = inconclusive; . = no result given; & = joins results of further samples; [ ] = remark or other dose.

SMILES	TRPML1 inh	D2 agonist	Six1-Eya2 blk	TRPML1 agonist	PINK1 expr mod	D2 potentiator
O=C1NC(=Nc2ccccc2Cl)S/C1=C\c1cccc([N+](=O)[O-])c1	8	-4.9	-10	-0.4	-1.0%	-4
COc1cc(NS(=O)(=O)c2ccc(NC(=O)c3ccc(S(=O)(=O)N4CCCCC4)cc3)cc2)ncn1	-24	2.1	-2	1.1	-0.9%	0
Cc1cc(C)c2sc(NC(=O)C3=COCCO3)nc2c1	-12	3.8	5	1.7	0.6%	-7
CC(NC(=O)c1cc(S(=O)(=O)N(C)C)ccc1Cl)C1CC2CCC1C2 (stereo unspecified)	11	-0.4	-19	-0.9	2.8%	-1
Cc1ccccc1C(=O)Nc1c2c(nn1C(C)(C)C)CS(=O)(=O)C2	11	-4.2	5	-0.8	0.3%	-1
CNC(=O)N(c1ccccc1)c1ccccc1	17	4.4	10	0.1	-0.7%	22
C=C1CC[C@@H]2[C@](C)(CO)[C@H](O)CC[C@@]2(C)[C@@H]1/C=C/C1=CCOC1=O	17&12	13	1	0.3&0.7	1.8%	-1
CN1CCN(C(=S)c2cn(Cc3ccccc3F)c3ccccc23)CC1	1	1.2	-20	1.6	0.8%	-10
COc1ccccc1NC(=O)C(=O)NCC1COc2ccccc2O1 (stereo unspecified)	3	0.4	4	0.5	.	7
Cc1ccc(NC(=O)CN(C)C(=O)C(C)OC(=O)c2ccccc2NCCO)cc1 (stereo unspecified)	2	1.4	1	-1.3	3.5%	-4
O=C(NCCc1ccccc1)c1cc(Nc2ccccc2)nc2ccccc12	-3	.	.	1.6	14%	.
COc1ccc(OC)c(NC(=O)CN(c2ccc(OC)c(Cl)c2)S(C)(=O)=O)c1	12	1.0	-4	-0.5	0.8%[38.3 µM]	1

Record cards, as listed above. Values in the order: TRPML1 inh	D2 agonist	Six1-Eya2 blk	TRPML1 agonist	PINK1 expr mod	D2 potentiator
Cc1cc(C)c2sc(NC(=O)C3=COCCO3)nc2c1 as listed: -12	3.8	5	1.7	0.6%	-7
CN1CCN(C(=S)c2cn(Cc3ccccc3F)c3ccccc23)CC1 as listed: 1	1.2	-20	1.6	0.8%	-10

Next section
SMILES	TRPML1 inh	D2 agonist	Six1-Eya2 blk	TRPML1 agonist	PINK1 expr mod	D2 potentiator
Cc1noc(C)c1C(=O)Nc1nc(-c2ccc(F)c(F)c2)cs1	20	1.3	-3	1.3	12%	-14
Cn1ncc2c(Sc3ccc(Cl)cc3)ncnc21	-14	-2.7	-3	0.8	1.7%	-7
Cc1ccc(-c2csc(/C(C#N)=C/c3ccccc3Cl)n2)cc1	-3	.	.	0.9	2.4%	.
O=C(NCc1nnnn1-c1ccc(Cl)cc1)C(=O)c1c[nH]c2ccccc12	-6	-1.5	3	1.0	1.6%	-12
Cc1ccc([N+](=O)[O-])cc1NC(=O)C(C)N1CCCCC1 (stereo unspecified)	-9	-3.3	-1	1.1	0.4%	-15
CS(=O)(=O)N1CCC(C(=O)Nc2c(F)cccc2F)CC1	4	-2.9	-8	-0.1	-0.7%	2
CC1CCN(c2cc3c(cc2F)c(=O)c(S(=O)(=O)c2cccc(Cl)c2)cn3Cc2ccccc2)CC1	8	.	.	-0.4	17%	.
Cc1ccc2oc(=O)n(CCNC(=O)Nc3ccc(Cl)cc3)c2c1	0	.	.	-0.7	1.0%	.
Cc1noc(C)c1C(=O)OCC(=O)Nc1cccc(F)c1	-20	-0.7	13	-0.2	0.4%	-6
O=C(CN1C(=O)NC2(CCCCC2)C1=O)Nc1ccccc1N1CCCCC1	1	-2.2	2	-0.5	2.0%	-12
CCc1ccccc1NC(=O)CSc1nnc(-c2ccc(OC)cc2)s1	8	.	.	0.7	-0.8%	.
CCOc1ccc(NC(=O)CN(C)C(=O)c2cn(-c3ccc(C)cc3)nc2-c2cccc(OC)c2)cc1OCC	-14	-1.0	?	2.7	0.7%	-24
C[C@H](CO)N1C[C@H](C)[C@@H](CN(C)S(=O)(=O)c2cn(C)cn2)OCc2cn(nn2)CCCC1=O	-18	-7.5	-1	-0.3	1.0%	-4
Cc1nn(CC(=O)N2CCCCCC2)c(=O)c2cc3occc3n12	-13	-1.9	0	-0.1	-1.4%	-5
O=C(Nc1ccccc1)[C@@H]1CC=C[C@@H]2CCN(Cc3ccc(Cl)c(Cl)c3)C(=O)[C@@H]21	10	-2.5	-13	-0.4&-0.5	6.1%	-21
Cc1cc(C)cc(CC(=O)N2CCC2(C)C(=O)NS(=O)(=O)c2ccc(C#N)cc2)c1 (stereo unspecified)	.	4.2	11	-0.1	3.8%	-4
Cc1oc2ccc(Br)cc2c(=O)c1-c1nn[nH]n1	-7	-3.8	-6	-0.2	3.1%	-14
CCS(=O)(=O)Nc1cccc(C2=NN(S(=O)(=O)c3ccccc3)C(c3ccco3)C2)c1 (stereo unspecified)	10	-1.1	-3	0.2	-0.5%	-4
CCCN1C(=O)/C(=C/c2ccc(C)o2)SC1=Nc1ccc(OCC)cc1	33	-6.7	-10	0.3	?	-16
O=C(O)C1CCCCC1C(=O)Nc1ccc(F)c(F)c1 (stereo unspecified)	-14	-0.2	-3	-0.1	0.5%	-18
CCn1c(C(=O)Nc2ccc(C)cc2C)cc2sc(Cl)cc21	7	.	.	0.0	0.0%	.
CCOc1ccc(NC(=O)Cn2c(=O)nc(-c3ccccc3)c3ccccc32)cc1	-1	.	.	1.6	-0.8%	.
CCOC(=O)c1c(S(=O)(=O)NCC(=O)Nc2ccc(C)cc2)c(C)n(C)c1C	35	0.5	-1	-0.8	0.8%	-7
CCOC(=O)c1ccc(NS(=O)(=O)c2c(C)nc3sccn3c2=O)cc1	6	1.4	-5	-0.8	-0.4%	6
COc1cc(NC(=O)[C@@H]2O[C@H](CO)[C@@H](O)[C@H]2O)cc(OC)c1OC	.	-2.4	6	0.0	1.9%	-6
Cc1ccc(N/C=C/C(=O)c2ccccc2)cc1Br	-3	-1.8	1	2.3	7.3%	-27
COCCn1c(SCC(=O)Nc2cc(C)on2)nc2c(c1=O)SC(C)C2 (stereo unspecified)	12	-2.2	-4	0.3	1.2%	-3
CN(C)S(=O)(=O)n1cc(/C=C(\NC(=O)c2ccccc2)C(=O)N2CCCC2)c2ccccc21	7	1.8	3	2.6	0.0%	-9
CCCOc1ccc(C2c3c(oc4ccccc4c3=O)C(=O)N2CCCN2CCOCC2)cc1 (stereo unspecified)	24	-1.9	0	0.5	2.9%[38.3 µM]	3
CCCCCC(=O)N1C[C@@H](n2cc(-c3ccc(F)cc3)nn2)[C@H](O)C[C@@H]1c1ccc(Cl)cc1	-2	-5.3	1	2.3	?	-1
O=C(O)CCC(=O)NNc1nc(-c2ccccc2)c2cc(Cl)ccc2n1	-5	0.2	0	0.6	-3.4%	-5
O=C(N/N=C/c1ccc(F)cc1)c1c(O)c2ccccc2[nH]c1=O	-5	-0.4	0	-0.2	4.5µM*	13
O=C(NCCCNCc1ccccc1)c1ccncc1	-11	1.3	4	0.3	-1.2%[38.3 µM]	-1
CCn1cc(C(=O)NCc2ccccc2OC)c(=O)c2cc(S(=O)(=O)N3CCCCCC3)ccc21	16	.	.	1.7	1.9%	.
O=C(c1ccc(S(=O)(=O)N2CCC(c3nc4ccccc4s3)CC2)cc1)N1CCOCC1	-11	0.8	-1	-0.3	5.8%[38.3 µM]	-10
Cc1ccccc1CN1c2ccccc2-c2nc(SCC(=O)NCCc3ccccc3)ncc2S1(=O)=O	-4	.	.	0.9	2.7%	.
O=C1C2CCCN2C(c2ccccc2F)N1c1ccc(Cl)cc1 (stereo unspecified)	16	0.4	7	0.8	9.3%	-6
CC(C)(C)n1nnnc1C(c1cc2ccccc2o1)N1CCOCC1 (stereo unspecified)	.	.	-3	-0.4	4.3%	.
O=C(CSc1nc2cc(C(=O)O)ccc2c(=O)n1-c1ccc(F)cc1)Nc1ccc(F)c(F)c1F	-21	-0.4	-2	1.5	1.0%	-14
CCOc1ccc(C(=O)OCc2cc(=O)n3nc(C4CCCCC4)sc3n2)cc1	16	.	.	-1.0	0.3%	.
CCCCN(C(=O)CSc1nnc(-c2ccc(Cl)cc2)o1)c1c(N)n(CC(C)C)c(=O)[nH]c1=O	-5	-0.5	10	1.1	-1.8%	-4
Cc1nn(CCC(=O)NCc2ccc(Cl)cc2)c(=O)c2nn(-c3ccccc3)c(C)c12	-28	.	.	0.2	-2.6%	.
O=S(=O)(N/N=C/c1ccc2c(c1)OCCO2)c1ccc(Cl)cc1	27	-1.2	4	1.1	0.6%[38.3 µM]	-13
COc1ccc(NC(=O)CNC(=O)c2nn(-c3ccc(OC)cc3OC)c(=O)c3ccccc23)c(OC)c1	1	7.2	-8	1.0	5.6%	-4
COc1ccccc1C(=O)NC(=O)COc1cc(Cl)ccc1Cl	18	1.0	2	6.6	6.5%	-9
COc1ccc(Nc2ncccc2C(=O)Nc2ccccc2)cc1	9	1.6	-10	0.2	-0.2%	0
CC1CC/C(=C\c2ccc3c(c2)OCO3)C(=O)/C1=C/c1ccc2c(c1)OCO2 (stereo unspecified)	-13	-4.2	-8	4.3	-3.4%	1
CCCCOc1nc2ccccc2nc1C(C#N)S(=O)(=O)c1ccccc1 (stereo unspecified)	24	0.3	-3	-0.4	11%[38.3 µM]	-4
Cc1cccc(NC(=O)N(Cc2nc3ccccc3c(=O)[nH]2)C2CCCC2)c1	-4	-1.6	-2	-0.2	0.9%	-13
CC(=O)NC(CCS(C)(=O)=O)C(=O)Nc1ccccc1C (stereo unspecified)	8	1.1	7	0.0	8.2%[38.3 µM]	-9
Cc1csc2c(SCC(=O)NNS(=O)(=O)c3cccc(C(F)(F)F)c3)ncnc12	-9	-1.9	-3	-1.2	-0.5%	-17
COc1cc(O)cc(O)c1C(=O)/C=C/c1ccccc1	.	-9.0	1	.	8.0%	-59
